# Hedgehog cleavage: Drosophila hedgehog isoform A inhibitors, primary screen, biochemical, plate reader, single concentration (AID 588832); inhibition, % at 30.3 µM; 8,000 tested, under 10 active; Biochemical plate reader assay, Hedgehog inhibition; stronger effect = higher value; in the data active = inhibition from about 57%;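 also: 0% = neutral control wells and 100% = positive control wells; cholesterol-driven self-cleavage of fly hedgehog protein by fluorescence polarization; read one hour after cholesterol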
# An asterisk follows results filed as active. These rows are one share of the data, so the mix of outcomes need not match the whole.
Structure	Hedgehog cleavage
CCC(C)[C@H](NS(=O)(=O)c1ccc(C)cc1)C(=O)N1CCC(C(=O)N2CCC(C(=O)OC)CC2)CC1 (some centres not stated)	11
COc1ccc(-n2c(Cc3cccn3C)nnc2SCC(=O)Nc2cccc(F)c2)cc1	15
CC(C)c1nc(SCC(=O)Nc2ccc3c(c2)OCCO3)c2c(=O)n(C)c(=O)n(C)c2n1	5
Nc1ncnc2c1ncn2[C@H]1CC[C@@H](CO)O1	7
COc1ccc(OC)c(C2CC(=O)N3CN(c4cccc(Cl)c4C)CSC3=C2C#N)c1 (configuration not stated)	5
COc1ccc(-c2[nH]c(-c3ccccc3)nc2SCC(=O)Nc2nccs2)cc1	1
C=C(C)COc1ccc2c(C)c(CCC(=O)N3C[C@H]4C[C@@H](C3)c3cccc(=O)n3C4)c(=O)oc2c1	7
COc1cc(O)c2c(=O)cc(-c3ccccc3)oc2c1	4
Cc1c(CC(=O)N2C[C@H]3C[C@@H](C2)c2cccc(=O)n2C3)c(=O)oc2cc3occ(C(C)(C)C)c3cc12	5
Cn1c(Cn2c(=O)sc3ccccc32)nnc1SCC(=O)NC1CCCC1	20
O=C(CSc1nc2ccccc2nc1N1CCCCC1)Nc1ccc(F)cc1	11
CCc1ccc(C2CC(c3ccc(F)cc3)Nc3nc(N)nn32)cc1 (configuration not stated)	10

# Going on with the list.
Structure	Hedgehog cleavage
O=C(CCCc1ccccc1)NCc1cn2ccsc2n1	2
C=C(C)Cn1c(N(CCO)Cc2ccccc2)nc2c1c(=O)[nH]c(=O)n2C	8
O=c1[nH]cn[nH]1	7
O=C(Cc1ccc(NC2=NC3CS(=O)(=O)CC3S2)cc1)NCc1ccc(Cl)cc1 (configuration not stated)	5
C=CC[C@]12C=C(OC)C(=O)C(OC)=C1O[C@@H](c1ccc3c(c1)OCO3)[C@H]2C	3
O=C(CSc1c[nH]c2ccccc12)NCC1CCCO1 (configuration not stated)	9
O=c1cc(-c2ccc(O)cc2)oc2cc(O)c([C@@H]3O[C@H](CO)[C@@H](O)[C@H](O)[C@H]3O)c(O)c12	2
COc1ccccc1CNC(=O)[C@@H](NC(=O)C1CCN(C(=O)[C@@H]2CCCN2)CC1)C(C)C	7
O=C(c1cc2ccccn2n1)N1CCN(c2ccccn2)CC1	5
Cn1c(=O)oc2cc(S(=O)(=O)NCc3ccco3)ccc21	1
CCN1CCCC1CNC(=O)CS(=O)(=O)Cc1nc(-c2ccccc2C)oc1C (configuration not stated)	10
Cc1ccccc1-c1nc(CS(=O)(=O)CC(=O)NCCCN2C(C)CCCC2C)c(C)o1 (configuration not stated)	-6

# Additional records:
Structure	Hedgehog cleavage
COc1c(O)c(O)c2oc(-c3ccccc3)cc(=O)c2c1OC	7
COC(=O)C(C)Sc1nc(N)c(NC(=O)c2ccco2)c(=O)[nH]1 (configuration not stated)	2
COc1ccc(NC(=O)C2CCCN(S(=O)(=O)c3ccc4[nH]c(=O)ccc4c3)C2)cc1 (configuration not stated)	15
Cc1ccc(C(=O)NCCn2cc(SCC(=O)Nc3cc(C)on3)c3ccccc32)cc1	4
C=Cc1ncc(OC)c2c1[nH]c1ccccc12	2
CCn1cc(C(=O)NCCCOC)c(=O)c2cc(S(=O)(=O)N(C)C)ccc21	17
CCCN1C(=O)c2cc(C(=O)O)ccc2C1O (configuration not stated)	7
CC(=O)n1cc(CO)c2ccccc21	7
Cc1nc2sc(C(c3ccco3)N3CCN(c4ccc(F)cc4)CC3)c(O)n2n1 (configuration not stated)	6
Cc1nn(CC(=O)N2CCN(c3ccccc3)CC2)c(=O)c2cccn12	7
C/C=C/CSc1nc2c(c(=O)[nH]c(=O)n2C)n1Cc1ccc(C)cc1	2
COc1ccc(N2CSC3=C(C#N)C(c4cc(OC)ccc4OC)CC(=O)N3C2)c(OC)c1 (configuration not stated)	5

# Next part
Structure	Hedgehog cleavage
CSc1nnc(Cn2c(=O)sc3ccccc32)n1C	21
CCCCN(Cc1cc2ccccc2[nH]c1=O)S(=O)(=O)c1ccc(C)cc1	11
CC1CC(C)CN(CCCNC(=O)Cn2ncc3c(=O)oc4ccccc4c32)C1 (configuration not stated)	7
Cc1cccc(N2CCN(C(=O)CS(=O)(=O)Cc3nc(-c4ccccc4F)oc3C)CC2C)c1 (configuration not stated)	8
CCOC(=O)Cn1c(C(C)=O)nc2ccccc21	4
COC(=O)c1cc(NC2c3ccccc3C(=O)N2c2ccc(Cl)cn2)cc(C(=O)OC)c1 (configuration not stated)	10
CC(C)C[C@H](NC(=O)N1c2ccccc2NC(=O)[C@@H]1C(C)C)C(=O)N[C@@H](Cc1ccccc1)C(=O)O	5
Cc1ccccc1NC(=O)CSc1nnc(Cc2cccn2C)n1-c1ccc(F)cc1	21
COc1ccc(N2CCN(C(=O)CCC(=O)N3CC(C)Oc4ccc(C)cc43)CC2)cc1 (configuration not stated)	5
CCOc1cc(C2CC(=O)N3CN(C4CCCCC4)CSC3=C2C#N)ccc1O (configuration not stated)	8
CCOC(=O)c1[nH]c(C)c(C(=O)Nc2ccc(C)cc2C)c1C	2
Cc1ccc(C(=O)N(Cc2nc(-c3ccc(C)cc3)no2)C(C)C)cc1	17

# (more compounds)
Structure	Hedgehog cleavage
Cc1ccc2c(c1)N(C(=O)CCC(=O)NCc1cccc(Br)c1)CC(C)O2 (configuration not stated)	5
COC(=O)C1C(O)CCC2CN3CCc4c([nH]c5ccccc45)C3CC21 (configuration not stated)	3
Cc1c(OCC(=O)NCC(O)c2ccccc2)ccc2c(-c3ccccc3)cc(=O)oc12 (configuration not stated)	2
Cc1ccc2c(c1)N(C(=O)CCC(=O)NCC(C)c1ccccc1)CC(C)O2 (configuration not stated)	7
O=C(OCC1OC(Oc2ccc(O)cc2)C(O)C(O)C1O)c1ccccc1 (configuration not stated)	9
CCN(c1cccc(C)c1)S(=O)(=O)c1cc2[nH]c(=O)c(=O)[nH]c2cc1C	4
C=CCN(c1ccccc1)S(=O)(=O)c1ccc2c(c1)NC(=O)C(C)C(=O)N2 (configuration not stated)	2
COCCCNC(=O)Cn1ncc2ccsc2c1=O	1
CCOC(=O)c1nc(-c2ccc3c(c2)OCO3)[nH]c1C	7
COc1cccc(-n2c(Cc3cc(=O)[nH]c(=O)[nH]3)nnc2SCC(=O)Nc2ccccc2)c1	11
Cc1ccccc1NS(=O)(=O)c1nnc(NC(=O)c2ccccc2C)s1	12
COc1ccc(S(=O)(=O)N2CCOC2CNC(=O)C(=O)NCCc2ccccc2OC)cc1C (configuration not stated)	0

# Some of the entries above in a different format:
Hedgehog cleavage	Compound
7	CCOC(=O)c1nc(-c2ccc3c(c2)OCO3)[nH]c1C
11	COc1cccc(-n2c(Cc3cc(=O)[nH]c(=O)[nH]3)nnc2SCC(=O)Nc2ccccc2)c1
12	Cc1ccccc1NS(=O)(=O)c1nnc(NC(=O)c2ccccc2C)s1
0	COc1ccc(S(=O)(=O)N2CCOC2CNC(=O)C(=O)NCCc2ccccc2OC)cc1C (configuration not stated)

# More records follow:
Structure	Hedgehog cleavage
CCC(Sc1nc2c(cnn2-c2ccc(Cl)cc2)c(=O)[nH]1)C(=O)OC (configuration not stated)	10
CCOC(=O)CN1CC23C=CC(O2)C(C(=O)NC2CCCC2)C3C1=O (configuration not stated)	11
CCCc1cc(=O)oc2c(C)c(OCC(=O)N3C[C@H]4C[C@@H](C3)c3cccc(=O)n3C4)ccc12	5
NC(=O)c1c[nH]c2ccccc12	10
Cc1ccc(Cl)cc1N1CCN(C(=O)C2CCCN(S(=O)(=O)c3cnc[nH]3)C2)CC1 (configuration not stated)	7
CCc1cc(=O)oc2c(C)c(OC(C)C(=O)N3CCC[C@@H]3C(=O)O)ccc12 (some centres not stated)	3
C/C=C/COC(=O)c1[nH]c2c(c1C)C(=O)CC(c1ccc(N(C)C)cc1)C2 (configuration not stated)	28
O=C(Cn1ncc2c(=O)oc3ccccc3c21)N1CCCN(Cc2ccccc2F)C1	1
CC(=O)c1ccc([N+](=O)[O-])cc1	12
O=C(NCCN1CCCC1)c1ccc(CS(=O)(=O)c2c(Cl)cccc2Cl)o1	8
CCOc1ccc(CCNC(=O)c2cc3ccccn3n2)cc1OCC	19
O=C(COC(=O)C1CC(=O)N(c2ccccc2)C1)c1ccccc1 (configuration not stated)	13

# Next part.
Structure	Hedgehog cleavage
COC(=O)C1=COC(OC2OC(CO)C(O)C(O)C2O)C2C(C)CC(=O)C12 (configuration not stated)	9
O=C(NC1CCCC1)C(Cc1ccccc1)n1cccc1 (configuration not stated)	4
CC(=O)c1cccc([N+](=O)[O-])c1	12
Cc1ccc(-n2c(SCC(=O)Nc3cc(C)on3)nc3c(c2=O)SC(C)C3)cc1 (configuration not stated)	4
Cc1cc2cc(CNC(=O)c3ccc(S(=O)(=O)N4CCOCC4)cc3)ccc2[nH]1	5
Cc1nc2c3ccccc3n(CC#N)c(=O)n2n1	10
CCCCCCNS(=O)(=O)c1nc2nc(C)cc(C)n2n1	2
O=C(c1cc(-c2ccco2)on1)N1CCN(c2ccccc2)CC1	3
CC1CCc2nn(CC(=O)N3CCN(C(=O)c4ccco4)CC3)cc2C1 (configuration not stated)	15
COc1ccc(Nc2cc(C)nc3ncnn23)c(OC)c1	9
COC(=O)c1c(C)c(OC(=O)c2c(C)cc(O)c(C=O)c2O)cc(C)c1O	5
O=C(Nc1ccc(Cl)c(Cl)c1)c1ccc(Cn2c(=O)[nH]c3ccsc3c2=O)cc1	2

# (cont.)
Structure	Hedgehog cleavage
O=c1[nH]c2ccc(S(=O)(=O)N3CCCCC3)cc2s1	8
CCCCCOC(=O)CSc1nc2c(c(=O)[nH]c(=O)n2C)n1Cc1ccc(Cl)cc1	2
CCOC(=O)CSc1nnc(-c2c[nH]c3ccccc23)n1CC	1
COc1ccc2cc1Oc1ccc(cc1)CC1c3c(cc(OC)c4c3Oc3cc5c(cc3O4)CCNC5C2)CCN1C (configuration not stated)	0
Cc1oc(-c2cccc(Cl)c2)nc1CS(=O)(=O)CC(=O)NCCN1CCOCC1	2
Cc1cccc(NC(=O)C2CCCN(c3ncnc4c3nc3n4CCCCC3)C2)n1 (configuration not stated)	8
CCOC(=O)CSCC(=O)Nc1nnc(-c2cccc([N+](=O)[O-])c2)s1	24
CC(C)CCOc1cccc(C2c3c(oc4ccccc4c3=O)C(=O)N2CCCN2CCOCC2)c1 (configuration not stated)	21
O=c1[nH]cnc2c1nnn2C1OC(CO)C(O)C1O (configuration not stated)	5
CCC(C)N(CCNC(=O)c1ccc(NC2=NC3CS(=O)(=O)CC3S2)cc1)Cc1ccco1 (configuration not stated)	8
COc1ccc(/C=C\C(=O)NCc2ccc3c(c2)cc(C)n3C)cc1OC	5
CCOC(=O)N1CCC(NC(=O)C2CCCN(S(=O)(=O)c3cccnc3)C2)CC1 (configuration not stated)	3

# (cont.)
Structure	Hedgehog cleavage
CC1CN(C(=O)CCC(=O)NCCCc2ccccc2)c2ccccc2O1 (configuration not stated)	11
O=C(CSc1cn(CCNC(=O)c2cccs2)c2ccccc12)NCC1CCCO1 (configuration not stated)	7
O=C1c2ccccc2C(Nc2ccc(S(=O)(=O)N3CCOCC3)cc2)N1c1cccnc1 (configuration not stated)	0
Cc1cc(-c2nc3cccnc3s2)ccc1NS(=O)(=O)c1ccc2c(c1)OCCO2	6
Cc1ccc(Cn2c(SCCN3CCCCC3)nc3c2c(=O)[nH]c(=O)n3C)cc1	11
COc1ccc2c(C)c(CCC(=O)NC3CC3)c(=O)oc2c1C	4
Cn1c(Cn2c(=O)sc3ccccc32)nnc1SCC(=O)Nc1ccc2c(c1)OCO2	20
COc1ccc(OC)c(-c2nc(C(=O)NC3CCN(Cc4ccccc4)CC3)cc3c2[nH]c2ccccc23)c1	9
CSc1ccc(S(=O)(=O)Nc2ccc3c(c2)OCCO3)cc1	17
CC1C(=O)Nc2ccc(S(=O)(=O)NCCc3ccc(Cl)cc3)cc2NC1=O (configuration not stated)	2
Cc1ccc(C)c(N2CCN(C(=O)c3ccc(N4CCCC4=O)cc3)CC2)c1	4
COCCn1c(SCC(=O)N2CCc3ccccc32)nc2c(c1=O)SC(C)C2 (configuration not stated)	6

# 7 entries out of the list above, sorted by the number in Hedgehog cleavage, lowest first:
molecule | Hedgehog cleavage
O=C1c2ccccc2C(Nc2ccc(S(=O)(=O)N3CCOCC3)cc2)N1c1cccnc1 (configuration not stated) | 0
CC1C(=O)Nc2ccc(S(=O)(=O)NCCc3ccc(Cl)cc3)cc2NC1=O (configuration not stated) | 2
COc1ccc2c(C)c(CCC(=O)NC3CC3)c(=O)oc2c1C | 4
COCCn1c(SCC(=O)N2CCc3ccccc32)nc2c(c1=O)SC(C)C2 (configuration not stated) | 6
O=C(CSc1cn(CCNC(=O)c2cccs2)c2ccccc12)NCC1CCCO1 (configuration not stated) | 7
CC1CN(C(=O)CCC(=O)NCCCc2ccccc2)c2ccccc2O1 (configuration not stated) | 11
Cn1c(Cn2c(=O)sc3ccccc32)nnc1SCC(=O)Nc1ccc2c(c1)OCO2 | 20

# Further records
Structure	Hedgehog cleavage
O=c1ccc2cc(S(=O)(=O)N3CCN(c4ccccc4F)CC3)ccc2[nH]1	-4
CC(=O)Nc1ccc(S(=O)(=O)NCc2ccc3[nH]c(C)cc3c2)cc1	7
Cc1ccc(N2C(=O)C(CC(=O)Nc3cccc(F)c3)N(C3CC3)C2=O)cc1 (configuration not stated)	19
COC(=O)c1c(-c2cccc(OC)c2)csc1N	17
CC1(C)CC(=O)C2=C(C1)N1C(=C(C#N)C2c2ccccc2Cl)N=C(N)c2ccccc21 (configuration not stated)	12
CN(C)CCNC(=O)c1ccc2c(c1)N(Cc1ccc(F)cc1)CCS2	17
COc1ccc(C2=NS(=O)(=O)N(C)C(C(=O)N3CCCCC3)=C2)cc1	10
COc1ccccc1CNC(=O)CCC(=O)N1CCOc2ccc(C)cc21	5
Cc1ccc(C(=O)N2NC(c3ccc(F)cc3)C3C(=O)N(c4ccc(C)c(C)c4)C(=O)C32)cc1 (configuration not stated)	21

# Compound activity deposited in PubChem by Broad Institute.
